VDR inhibitor = inhibitors of human vitamin D receptor; 400,000 tested, 0.93% active; AID 504847; Potency, µM, for the others: max response, negative = inhibition, hits mostly inhibitors; VDR-SRC2-3 peptide fluorescence polarization, 2 h; active = well fitted inhibition curve with a large enough effect; inconclusive = small, poorly fitted or top-dose-only effect, or another doubt; inactive = no such curve, though single readings can be large or run the other way; also: series mostly up to about 120 µM
Target sequence (P11473 whole entry, looked up): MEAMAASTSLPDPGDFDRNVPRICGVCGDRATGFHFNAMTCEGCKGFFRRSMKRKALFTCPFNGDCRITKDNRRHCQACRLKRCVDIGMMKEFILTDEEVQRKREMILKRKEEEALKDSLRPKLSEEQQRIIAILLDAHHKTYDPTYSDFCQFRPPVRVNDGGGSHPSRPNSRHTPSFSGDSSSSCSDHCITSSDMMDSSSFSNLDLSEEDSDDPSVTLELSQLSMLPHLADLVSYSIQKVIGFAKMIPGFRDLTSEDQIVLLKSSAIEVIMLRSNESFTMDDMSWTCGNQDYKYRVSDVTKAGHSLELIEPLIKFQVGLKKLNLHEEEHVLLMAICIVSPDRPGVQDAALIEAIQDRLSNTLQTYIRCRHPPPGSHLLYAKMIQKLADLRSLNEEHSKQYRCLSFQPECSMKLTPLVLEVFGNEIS
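After 23 nl compound addition and a short centrifugation, plates sat for 2 hours at ambient temperature; polarization of fluorescence then indicated loss of VDR binding to peptide SRC2-3.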
The depositor's hits bear a star; u = inconclusive; & = joins results of further samples. % is scaled to controls: 0 for no effect and ±100 for the full control effect; potency is read from the fitted curve at half-maximal effect. Some of the compounds tested; count on the stated rates, not on these rows.

VDR inhibitor | structure
23% | CC(=O)NCCSCCNC(C)=O
-12% | CN(C)CCCNC(=S)N1CCC(c2nc3ccccc3[nH]2)CC1
-4% | Cc1ccc(NC(=O)c2cc(S(=O)(=O)N(C)C)ccc2N2CCCC2)cc1F
6% | CN(C(=O)Cn1c(=O)n(CCC(=O)NCc2ccc3c(c2)OCO3)c(=O)c2sccc21)c1ccccc1
-16% | Cc1ccc(C)c(OCCC(=O)OCC(=O)NCCNC(=O)COC(=O)CCOc2cc(C)ccc2C)c1
-25% | NS(=O)(=O)c1cccc(NC(=O)COC(=O)c2cc(Cl)ccc2[N+](=O)[O-])c1
18% | Cc1c(C(=O)O)sc2nc(SCC(=O)Nc3ccc(S(=O)(=O)NCCCC(=O)O)cc3)[nH]c(=O)c12
17% | CCN(CC)S(=O)(=O)c1nnc(NC(=O)c2ccc(Br)cc2)s1
3% | O=C(Cc1ccc([N+](=O)[O-])cc1)NNC(=O)c1ccc2c(c1)OCO2
6% | O=C(COc1ccccc1)Nc1ccncc1
10% | C=CCN1C(=O)C(O)(CC(=O)c2ccccn2)c2ccccc21 (stereo not given)
8% | CC(C)OCCOc1ccc2oc(-c3ccco3)cc(=O)c2c1
-7% | Clc1ccccc1CSC1=NCCN1
-11% | N=C1C(c2ccccc2)=C(O)CN1CCO
-17% | Fc1ccc(CNc2nc3ccc(Cl)cc3n3nnnc23)cc1
-9% | COc1ccc(C2/C=C\CN(C(=O)c3ccccc3)CC(=O)N2Cc2cccc(F)c2)cc1 (stereo not given)
-9% | O=C(Nc1ccc(-c2n[nH]c(=S)o2)cc1)c1ccccc1
3%&5% | COC(=O)[C@@H]1CCCN1C(=O)[C@@H](NC(=O)OC(C)(C)C)C(C)C
-19% | COc1ccc(CN2CCCC(N3CCN(c4cccc(Cl)c4)CC3)C2)cc1OC (stereo not given)
-2% | Cc1ccc(S(=O)(=O)N(C)C)cc1NC(=O)CSc1ccc2c(c1)OCCO2
5% | CN(CC(=O)Nc1ccc(Cl)c(C(F)(F)F)c1)C(=O)c1cc(-c2ccncc2)nc2ccccc12
-5% | CC(=O)c1cccc(NC(=O)COC(=O)COc2ccc(Cl)cc2)c1
-24% | O=C(NNC(=O)c1c(F)cccc1F)c1sccc1-n1cccc1
-10% | CCc1cccc(NC(=O)CCS(=O)(=O)c2ccc3c(c2)NC(=O)CO3)c1
u | Cn1c(SCC(=O)c2ccccc2)nc2cccnc21
-18% | Cc1cc(C)c(NC(=O)CSc2nnc(Cc3cccn3C)n2-c2ccc(F)cc2)c(C)c1
79µM* | O=S(=O)(Nc1ccc(Cl)cc1)c1ccc(N2CCOCC2)c(NC(=S)NC2CC2)c1
-14% | O=C(Nc1ccccc1)C1=C[C@@H](c2ccc3c(c2)OCO3)C[C@@H](OCCCCO)O1
-8% | O=C1C2ON(c3ccccc3)C(c3ccccn3)C2C(=O)N1c1ccc(Br)cc1 (stereo not given)
2% | CCC(=O)N(Cc1cccs1)C1CCOC(C)(C)C1 (stereo not given)
-1% | CCOc1ccc(C(C)(N)C(=O)O)cc1 (stereo not given)
22µM* | Cc1ccc(C(=O)/C=C/c2ccc3ncccc3c2)cc1
-5% | COCCCN(C(=S)NC(=O)C(C)(C)C)c1c(N)n(Cc2ccccc2)c(=O)[nH]c1=O
-17% | S=C(Nc1cccc(Br)c1)c1ccccc1
15% | CCCNC(=O)c1ccccc1NC(=O)c1ccc2c(=O)n3c(nc2c1)CCC3
-22% | COc1ccc(NS(=O)(=O)c2cccc(C(=O)NCCCN3CCOCC3)c2)cc1
-14% | CC(=O)N1CCc2cc(S(=O)(=O)N3CCc4ccccc43)ccc21
u | CCc1ccc(NC(=S)/N=C(\N)Nc2nc(C)c3cc(CC)ccc3n2)cc1
-1% | COc1ncc2nc(C)c(=O)n(-c3ccccc3)c2n1
-5% | Cc1cccc(NC(=O)c2cc(-c3cc(Cl)ccc3O)n[nH]2)c1
-8% | CC(C)c1cnc(NC(=O)Cc2ccccc2)s1
2% | Cc1cc(C)n(-c2nc(Nc3ccccc3)nc(-n3nc(C)cc3C)n2)n1
14% | CNC(=O)c1cc2ccccc2o1
0% | COC(=O)c1ccc(CN2C(=O)NC3(CCCCC3C)C2=O)o1 (stereo not given)
5% | Cc1cccc(C)c1OCC(=O)Nc1c(C)nn(C)c1C
-7% | COc1ccc2sc(N(CCCN(C)C)C(=O)c3ccc(S(=O)(=O)N4CCCC4)cc3)nc2c1
-23% | Cc1c(C(=O)NCCO)sc2nc3n(c(=O)c12)CCC3
-22% | CCOc1ccc(S(=O)(=O)Nc2cccc(C(=O)N3CCN(C(C)=O)CC3)c2)cc1
-12% | COc1ccccc1NC(=O)CSc1nnc(CCC(=O)Nc2ccccc2F)n1C
-1% | Cc1ccc(C)c(SCC(=O)Nc2ccc(C)c(S(=O)(=O)N3CCOCC3)c2)c1
7% | CCOC(=O)c1c(C)[nH]c(C)c1S(=O)(=O)N(C)CC(=O)Nc1ccc(OC)cc1
-2% | COc1ccc(N2C(=NC(=O)c3ccc(Br)cc3)SC3CS(=O)(=O)CC32)cc1 (stereo not given)
-1% | CSc1oc(-c2ccc(F)cc2)nc1S(=O)(=O)c1ccc(F)cc1
10% | Cc1cc(C)n(CCC(=O)N2CCCC(N3CCN(c4cccc(Cl)c4)CC3)C2)n1 (stereo not given)
6% | COCCOC(=O)c1c(C)oc2ccc(NS(=O)(=O)c3cccs3)cc12
2% | O=C(/C=C/c1cc2c(cc1Br)OCO2)NCc1ccc(F)cc1
22% | O=C(CN(Cc1cccs1)C(=O)CN1C(=O)COc2ccccc21)NCc1ccco1
2% | COc1ccc(-n2c(SCC(=O)Nc3ccc4c(c3)OCO4)nnc2C(C)N2CCCCC2)cc1 (stereo not given)
-1% | COc1ccc(OCCC(=O)OCC(=O)Nc2cccc(Br)c2)cc1
-17% | C=CCOC(=O)/C(=C\C=C\c1ccccc1)NC(=O)c1ccccc1

Reformatted: 2 of the compounds above
| Compound | VDR inhibitor |
| --- | --- |
| COc1ccc(OCCC(=O)OCC(=O)Nc2cccc(Br)c2)cc1 | -1% |
| C=CCOC(=O)/C(=C\C=C\c1ccccc1)NC(=O)c1ccccc1 | -17% |

Further entries follow:
VDR inhibitor | structure
4% | Cn1c(=O)c2[nH]c(-c3ccccc3)nc2n(C)c1=O
-3% | Cc1ccccc1CN1CCN(C(=O)c2ccco2)CC1
5% | C=CCNC(=S)NNC(=O)c1ccc(Br)o1
5% | CN1CCc2c(sc(NC(=O)C3CCCCC3)c2C(N)=O)C1
-9% | Cc1ccccc1Nc1nc(N)nc(CSc2ccc(F)cc2)n1
-17% | CCOc1ccc(NC(=S)N(CCN2CCOCC2)Cc2ccc3c(c2)CCCN3CC)cc1
u | CC(C)[C@H](NC(=O)C1CC(=O)N(c2ccc(F)cc2)C1)C(=O)N1CCCCC1 (stereo not given in full)
u | CCCCn1c(SCC(=O)c2ccc3c(c2)OCCO3)nnc1-c1ccoc1C
9% | COc1ccc(CNC(=O)CSCc2ccc(C)cc2)c(OC)c1
-9% | COC(=O)c1ccc(/C=N/n2c(C)nc3ccccc3c2=O)cc1
-2% | COc1ccc(N(CC(=O)N/N=C/c2ccccc2OC)S(=O)(=O)c2ccccc2)cc1
-22% | CC(C)(C)OC(=O)C[C@@H]1C/C=C\C[C@H](CC(=O)N[C@@H](CO)Cc2ccccc2)C(=O)N[C@H](C(C)(C)C)COC1=O
-12% | C=CCNC(=S)NNC(=O)COc1ccc(Cl)cc1Cl
10% | COc1ccccc1N1CCN(Cc2nc3ccccc3[nH]2)CC1
10% | Cc1ccc(C)c(C(=O)C(C)OC(=O)CN2C(=O)NC3(CC(C)CC(C)(C)C3)C2=O)c1 (stereo not given)
9% | O=C(Nc1ccc(F)cc1)c1cccnc1N1CCCCC1
-8% | Cc1ccc(-c2n[nH]c(=S)n2/N=C/c2cccs2)cc1
-3% | O=C(NC(=S)N1CCN(c2ccc(F)cc2)CC1)C12CC3CC(CC(C3)C1)C2
11% | CN(C)CCNC(=O)c1ccc2c(c1)NC(=O)C(CS(=O)(=O)Cc1cccc(Br)c1)N2 (stereo not given)
4% | CC(C)CCN1CCN(C2CCN(c3ccc4c(c3)OCO4)CC2)CC1CCO (stereo not given)

Grouped by structure, the entries above with fluorine (13)
VDR inhibitor | structure
-4% | Cc1ccc(NC(=O)c2cc(S(=O)(=O)N(C)C)ccc2N2CCCC2)cc1F
-17% | Fc1ccc(CNc2nc3ccc(Cl)cc3n3nnnc23)cc1
-9% | COc1ccc(C2/C=C\CN(C(=O)c3ccccc3)CC(=O)N2Cc2cccc(F)c2)cc1 (stereo not given)
5% | CN(CC(=O)Nc1ccc(Cl)c(C(F)(F)F)c1)C(=O)c1cc(-c2ccncc2)nc2ccccc12
-24% | O=C(NNC(=O)c1c(F)cccc1F)c1sccc1-n1cccc1
-18% | Cc1cc(C)c(NC(=O)CSc2nnc(Cc3cccn3C)n2-c2ccc(F)cc2)c(C)c1
-12% | COc1ccccc1NC(=O)CSc1nnc(CCC(=O)Nc2ccccc2F)n1C
-1% | CSc1oc(-c2ccc(F)cc2)nc1S(=O)(=O)c1ccc(F)cc1
2% | O=C(/C=C/c1cc2c(cc1Br)OCO2)NCc1ccc(F)cc1
-9% | Cc1ccccc1Nc1nc(N)nc(CSc2ccc(F)cc2)n1
u | CC(C)[C@H](NC(=O)C1CC(=O)N(c2ccc(F)cc2)C1)C(=O)N1CCCCC1 (stereo not given in full)
9% | O=C(Nc1ccc(F)cc1)c1cccnc1N1CCCCC1
-3% | O=C(NC(=S)N1CCN(c2ccc(F)cc2)CC1)C12CC3CC(CC(C3)C1)C2

Screens as filed in PubChem BioAssay.
